ClpP mod = qHTS Assay for Activators of ClpP; Potency, µM (series often up to 57.5 µM), for inactives: top-dose activity change, negative = active; actives 1.9% (n = 340,000); ATP-dependent Clp protease proteolytic subunit (Bacillus subtilis (strain 168)), P80244; AID 651965, 2013; purified B. subtilis ClpP, FRET peptide cleavage, 20 min; active = well fitted falling curve with a large enough effect; inconclusive = small, poorly fitted or top-dose-only effect; inactive = no such curve, though single readings can be large or run the other way; also: potency is read from the fitted curve at half-maximal effect; the source files actives as falling curves though it sought activators and does not explain the sign; nearly all actives have a fitted effect of over 65% in size; many hits overshoot -100%
Target sequence (P80244 whole entry, looked up): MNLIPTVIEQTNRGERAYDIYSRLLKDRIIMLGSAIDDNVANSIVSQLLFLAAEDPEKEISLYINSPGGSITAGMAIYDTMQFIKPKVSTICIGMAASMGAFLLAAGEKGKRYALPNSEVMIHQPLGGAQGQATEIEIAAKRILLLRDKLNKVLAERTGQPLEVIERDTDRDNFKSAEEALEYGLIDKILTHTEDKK
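Purified B. subtilis ClpP, 10 microg/mL final in Tris/HCl pH8 with KCl, BSA, glycerol and Tween-20, cleaved an Abz/nitrotyrosine-quenched decapeptide. Fluorescence (ex 320, em 430) was read at 0 and 20 min at room temperature. Delta was normalized to 5.8 microM ADEP and DMSO/no-enzyme controls.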
TRPV1 PAM = potentiators of human vanilloid receptor 1 (TRPV1) | AID 540277 | Q8NER1 | actives 0.02% (n = 320,000) | potentiation, % at 8.33 µM | TRPV1-expressing cells, Fluo-8 calcium influx, capsaicin EC20 potentiation; host cell line not named in the record; control for the full effect not named in the record; active means potentiation above 80%; inconclusive means 30% to 80%; inactive means below 30%; also: 0% is about no effect
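Cells expressing TRPV1 were dye-loaded with Fluo-8 and read kinetically: 10 s baseline, 3 min after compound (agonist portion), then 2 min after EC20 capsaicin (allosteric enhancer portion). Calcium-bound dye fluorescence at 480/520 nm.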
Menin MLL FP FL = menin-MLL binding inhibition, fluorescein peptide. FP activity change, % at 61.4 µM. 290,000 tested, under 10 active. Fluorescence polarization, fluorescein-MLL peptide displacement from menin; inconclusive = falling polarisation curve, or a change in total fluorescence; inactive = total fluorescence flat and polarisation flat or rising; no compound was filed as active; the % refers to the polarisation; negative = inhibition;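 also: % of control where 0% means no effect; inhibitors lower the polarisation; unlabelled MLL peptide was the positive control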
TRPML1 ag = human mucolipin-1 channel agonism | actives 0.12% (n = 410,000) | TRPML1-expressing cells, Ca2+ dye fluorescence, FDSS; host cell line not named in the record; reference of the full effect not given here | activation, % (no concentration beside the values) | Q9GZU1; in the data active = activation above about 50%; inconclusive = about 30% to 50%; inactive = below about 30%; also: 0% is about no effect; the text of the record puts the active cut at 80%
Target sequence (Q9GZU1 whole entry, looked up): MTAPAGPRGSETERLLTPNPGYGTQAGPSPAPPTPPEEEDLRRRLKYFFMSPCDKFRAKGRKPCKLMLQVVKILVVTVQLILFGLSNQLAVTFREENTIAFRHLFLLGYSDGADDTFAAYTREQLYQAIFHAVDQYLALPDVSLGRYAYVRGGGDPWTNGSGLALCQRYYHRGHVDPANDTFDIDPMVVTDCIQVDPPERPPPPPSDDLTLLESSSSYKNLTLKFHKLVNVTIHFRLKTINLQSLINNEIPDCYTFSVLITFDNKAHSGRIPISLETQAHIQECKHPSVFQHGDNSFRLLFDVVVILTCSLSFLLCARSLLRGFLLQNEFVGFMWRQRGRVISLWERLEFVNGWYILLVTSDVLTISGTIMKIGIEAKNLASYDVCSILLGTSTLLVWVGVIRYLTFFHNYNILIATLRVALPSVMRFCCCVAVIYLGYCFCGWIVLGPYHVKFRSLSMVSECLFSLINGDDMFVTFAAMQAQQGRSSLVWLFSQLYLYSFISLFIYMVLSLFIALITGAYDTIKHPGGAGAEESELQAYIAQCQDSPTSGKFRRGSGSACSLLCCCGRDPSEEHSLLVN
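Cells: TRPML1-DL, 1X Tet inducer, ~16 h at 37 degrees C/5% CO2. Dye: ABD Ca8 no-wash + quencher, 45-90 min RT. Read: 10 s baseline, compound add, 110 s agonist phase; 54-4 EC80 (4uM final), 110 s antagonist phase.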
PINK1 modulator = PINK1 expression modulation. PINK1 immunofluorescence, high-content cytometry, 24 h. Potency, µM (top dose mostly 76.6 µM), without a hit: at the top dose activation (PINK1 increase), usual class: activators. actives 0.2% (n = 410,000). AID 624263; active = well fitted activation curve with a large enough effect; inconclusive = small, poorly fitted or top-dose-only effect; inactive = flat fitted curve, though single readings scatter; cell line not stated here;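 also: potency is read from the fitted curve at half-maximal effect; % of control where 0% means no effect; nearly all actives have a fitted effect of over 65% in size; a mitochondrial uncoupler was the plate control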
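Measures PINK1 amount and localization on or inside mitochondria by immunofluorescence. Stable cells get compounds at 5 concentrations for 24 hours before fixation and staining; CCCP controls included.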
TRPML1 blocker = human mucolipin-1 channel inhibition. TRPML1-inducible cells, Ca2+ dye fluorescence, FDSS; active compounds read low; inhibition of EC80 agonist-evoked calcium signal. activity change, negative = inhibition, % (concentration not given with the values). actives 0.02% (n = 390,000). AID 624415; in the data active means activity change below about -50%; inconclusive means about -30% to -50%; inactive means above about -30%;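 also: stimulus is agonist 54-4 at its EC80 concentration; % is scaled to controls: 0 for no effect and ±100 for the full control effect; the text of the record puts the active cut at -80%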
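TRPML1-DL cells, Tet-induced overnight (~16 h, 37 °C) at 1,500 cells/well, were loaded with Ca8 no-wash dye plus quencher for 45-90 min at room temperature. Compounds were pinned during FDSS kinetic reading; agonist 54-4 at EC80 (4 uM final) then added.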
Sfp inh = inhibitors of Bacillus subtilis Sfp phosphopantetheinyl transferase; Q9F4F7; Biochemical Sfp PPTase activity, qHTS; Potency, µM, inactives show max response, negative = inhibition, actives largely listed as inhibitors; actives 3.5% (n = 310,000); active = well fitted inhibition curve with a large enough effect; inconclusive = small, poorly fitted or top-dose-only effect, or another doubt; inactive = no such curve, though single readings can be large or run the other way;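 also: the enzyme is Sfp with the accession as filed and its product quenches rhodamine fluorescence; potency is read from the fitted curve at half-maximal effect; 0% = enzyme reaction without inhibitor and -100% = no enzyme wells; top concentration of the series not given in the record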
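Sfp 15 nM + cpd, 15 min RT; start w/ rhodamine-CoA 5 uM, BHQ-2-YbbR 12.5 uM (final); 50 mM Hepes pH 7.6, 10 mM MgCl2, 0.01% NP-40, 0.01% BSA; read 525/598 nm at 0 and 30 min.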
* hit, by the source's call; u = inconclusive; x = not tested or not shown; & = joins results of further samples; [ ] = dose if it differs, or a comment.

#	compound	ClpP mod	TRPV1 PAM	Menin MLL FP FL	TRPML1 ag	PINK1 modulator	TRPML1 blocker	Sfp inh
1	Cc1ccccc1/C=N\NC(=O)c1ccc(Cn2cccn2)o1	1.4%	-2	8.3	-0.5	1.8%	-1	13%
2	CC(OC(=O)C1=COCCO1)C(=O)NC1(C#N)CCCCC1 (centres undefined)	x	x	x	0.0	-2.5%	48	x
3	CC(C)Sc1nc2sc3c(c2c(=O)n1-c1ccccc1)CCCC3	-10%	x	x	0.6	-0.2%	-1	x
4	N=C1C(c2nc3ccccc3[nH]2)=C(O)CN1c1ccccc1	0.6%	3	1.2	0.6	u	3	17%
5	Cc1ccc(-c2noc(-c3ccc(NC4CCCC4)c([N+](=O)[O-])c3)n2)cc1	1.0%	x	x	0.9	2.9%	-11	x
6	COc1ccc(Nc2nc(NC(C)(C)C)nc(N3CCCC3)n2)c(OC)c1	-9.7%	-21	-0.8	2.0	3.2%[38.3 µM]	-8	7%
7	CC(C)N=C(NS(=O)(=O)c1ccccc1)C(Cl)(Cl)Cl	0.6%	-24	-0.5	-0.3	0.1%	0	-1%
8	O=C1CC(c2ccccc2)=Nc2ccc(Br)cc2N1	x	-4	5.3	0.8	4.4%	-4	21%
9	O=c1c2cc3c(=O)n(CC4CCCO4)c(=O)c3cc2c(=O)n1CC1CCCO1 (centres undefined)	-0.5%	-7	3.9	0.2	40%[38.3 µM]	-3	9%
10	CN(Cc1ccccc1)C(=O)[C@@H]1CCCN1C(=O)[C@@H]1CCCN1C(=O)c1cccc2ccccc12	0.2%	x	x	-0.9	0.0%	x	x
11	Cc1[nH]c2ccccc2c(=O)c1C(=O)/C=C/c1ccccc1	-3.8%	-15	11	x	-1.3%	x	12%
12	CC(=O)Nc1ccc(C2=NN(c3ccccc3)C(c3cccs3)C2)cc1 (centres undefined)	x	1	6.0	5.0	14%	10	2%
13	CC(C)(C)OC(=O)C[C@H]1C/C=C\C[C@@H](CC(=O)N(CCO)Cc2ccccc2)C(=O)NCCOC1=O	2.8%	x	x	-0.6	-1.3%	0	x
14	CC(=O)c1cccc(NC(=O)C2COc3ccccc3O2)c1 (centres undefined)	-0.5%	-11	-1.6	0.0	0.3%	20	8%
15	CC(=O)Nc1ccc(Oc2nc(C)cc(C)n2)cc1	0.9%	-4	1.6	-1.2	-0.3%	8	13%
16	O=C(CSCc1ccc(F)cc1)N1CCOCC1	-1.0%	-3	0.1	0.8	-1.7%[38.3 µM]	9	13%
17	Cc1noc(C)c1COC(=O)c1ccc(N(C)C)cc1	0.0%	-14	-4.0	0.2	0.0%	2	7%
18	Cc1cc(NC(=O)c2c(Cl)c(C)nn2C)no1	-2.6%	-9	0.9	1.8	1.3%	-4	14%
19	O=C(CN1CCN(c2ccc(O)cc2)CC1)Nc1ccccc1C(=O)NCCc1ccccc1	-2.5%	-8	x	1.7	2.1%	-1	x
20	CCOC(=O)C1=C(OCc2ccc(Cl)cc2)C2C=C(C)C=CC2N=C1 (centres undefined)	0.2%	-15	6.6	-0.2	-1.1%	29	3%
21	O=c1oc2ccccc2cc1-c1nnc(NCc2ccco2)s1	-17%	17	0.7	1.8	7.3%	-5	-29%
22	COC(=O)c1ccc(NC(=S)NN2CCOCC2)cc1	3.0%	u	-0.1	1.4	2.4%	7	-26%
23	CCCCCC(=O)N/N=C(\C)c1ccccn1	0.6%	1	2.1	-0.4	1.3%	-13	u
24	CCC(C)(C)NC(=O)C(c1ccc(OC)cc1)N(C(=O)CCC(=O)Nc1cc(C)on1)c1ccc(OC)c(OC)c1 (centres undefined)	-0.8%	-1	0.1	-0.6	3.8%	5	2%
25	COc1ccc(S(=O)(=O)Nc2ccc(S(=O)(=O)N3CCOCC3)cc2)cc1C	-7.8%	0	-2.0	-0.1	-3.6%	5	8%
26	CCOc1ccc(S(N)(=O)=O)cc1-c1nc2c(C(C)(C)C)nn(C)c2c(=O)[nH]1	x	x	4.4	1.9	-0.2%	-24	0%
27	COc1ccc(C(=O)N=c2nc3ccccn3s2)cc1	-6.3%	x	-0.1	0.1	1.0%	10	14%
28	COC(=O)CC1SC(=O)NC1=Nc1ccc(O)cc1 (centres undefined)	-0.2%	-2	1.1	-0.2	-0.7%	12	3%
29	COc1ccc(CNC(=O)Nc2cc(C)ccc2C)cc1	0.9%	2	0.8	1.1	1.2%	16	-21%
30	Cn1c(N)c(C(=O)COC(=O)c2ccc3c(c2)OCCO3)c(=O)n(C)c1=O	-1.3%	2	3.7	0.5	-0.4%	5	4%
31	COC(=O)c1nc2cc3c(cc2c(C)c1C(=O)OC)OCO3	u	2	2.4	0.0	-0.7%	-12	21%
32	O=C(Nc1ccncc1)C1CCN(S(=O)(=O)c2ccc(Cl)cc2)CC1	x	-21	x	-0.2	-2.5%	-4	x
33	Cc1ccc(C)c(CN2C(=O)c3ccccc3S(=O)(=O)c3ccc(C(=O)N4CCc5ccccc54)cc32)c1	-1.5%	x	x	3.2	1.8%	4	x
34	COc1ccc(-n2cc(-c3ccc4c(c3)OCO4)n(CC(=O)Nc3cc(Cl)ccc3C)c2=O)cc1	-29%	x	x	1.0	0.7%	-12	x
35	Cc1ccc2c(=O)cc(C(=O)NCc3ccccc3)oc2c1	1.2%	x	x	-0.3	0.9%	-13	x
36	CC(C)CN(C(=O)C1=COCCO1)c1c(N)n(Cc2ccccc2)c(=O)[nH]c1=O	-1.9%	x	x	-0.3	-0.6%	-12	x
37	CCN1CCC2(CC1)N=C(c1ccc(F)cc1)C(=S)N2C(=O)c1ccc(C)cc1	-3.2%	-9	3.4	0.4	-2.4%	3	-8%
38	CNS(=O)(=O)c1ccc(C(=O)NCC(=O)NCC2COc3ccccc3O2)cc1 (centres undefined)	-0.4%	9	x	-0.2	0.3%	-5	x
39	Cc1cccc(NC(=O)CSc2nc(-c3ccccc3)c(C#N)c(=O)[nH]2)c1C	-5.9%	21	4.0	0.2	0.5%	26	17%
40	CCCCN1C(=O)CC(C(=O)O)C1c1ccc(OC)cc1 (centres undefined)	2.5%	1	0.1	-0.8	-2.0%	10	10%
41	COc1cc(CNC(=O)c2cc(-c3cc(Cl)ccc3C)n[nH]2)cc(OC)c1	-1.8%	x	x	0.1	3.9%	x	x
42	CCCCCCCC(=O)N/N=C/c1ccncc1	x	-1	2.0	-0.9	-2.0%	-3	1%
43	Cc1ccc(C(=O)N2CCN(C)CC2)cc1S(=O)(=O)N1CCOCC1	-2.3%	8	x	0.3	-0.5%	-4	7%
44	COc1cccc(C(NC(C)=O)c2nc(-c3ccc(N(C)C)cc3)cs2)c1 (centres undefined)	-4.2%	x	x	-0.7	4.7%	x	x
45	O=C(Cc1c(O)c2ccccc2[nH]c1=O)NCc1ccccc1F	28µM*	-3	4.7	0.8	2.3%	20	-9%
46	COc1cc(OC)cc(C(=O)NCCCCCCNC(=O)c2cc(OC)cc(OC)c2)c1	-3.4%	-1	x	4.4	0.9%	-7	x
47	CC12CN(Cc3ccccc3)CC(C)(CN(Cc3ccccc3)C1)C2=O	0.8%	20	-1.1	3.1	3.7%	1	21%
48	CCOC(=O)/C(C#N)=C/c1cn(CCC(=O)O)nc1-c1cccc(Br)c1	x	8	-0.6	0.2	1.1%	-6	11%
49	CC(=O)Nc1ccc(-c2csc(NCc3ccco3)n2)cc1	-4.4%	u	1.4	-0.2	0.3%	-6	15%
50	CC(C)(C)OC(=O)N1CCC(c2c(C(=O)NCCN3CCOCC3)cnn2-c2cccc(F)c2)CC1	0.7%	x	x	0.3	2.1%	-1	x
51	Cc1ccc(-n2c3nc(=O)[nH]c(=O)c-3cc3c(C)nn(-c4ccccc4)c32)c(C)c1	3.9%&-12%	-5	x	0.8&-0.3	0.2%&-1.0%	4&101	-12%
52	CCc1nc(SCC(=O)NCC2CCCO2)c2c(=O)n(C)c(=O)n(C)c2n1 (centres undefined)	-0.9%	2	3.4	0.0	1.5%	0	-8%
53	CCOc1ccccc1N(C)C(=O)Cn1cnc2onc(-c3ccc(F)cc3)c2c1=O	2.3%	x	x	0.2	0.2%	-7	x
54	Cc1cc(C)cc(NC(=S)NC(=O)CCN2C(=O)c3ccccc3C2=O)c1	3.0%	6	-2.0	3.1	-0.9%	-6	8%
55	COc1cccc(CNC(=O)C2CCCN(S(=O)(=O)c3c(C)[nH]c(=O)[nH]c3=O)C2)c1 (centres undefined)	-0.4%	6	-1.3	0.5	-3.9%[38.3 µM]	9	u
56	CN(C)c1cc[n+](Cc2c(Cl)cccc2Cl)cc1	-2.0%	-5	1.6	0.5	5.2%	0	19%
57	Cc1cccc(-n2c(N)cc(=O)nc2SCC(=O)Nc2nnc(C)s2)c1	-1.2%	23	0.2	0.1	-1.2%	5	1%
58	CCc1ccc(Cn2c(CNS(=O)(=O)c3ccc4c(c3)CCCC4)nc3cccnc32)cc1	-2.0%	x	x	1.7	-0.5%	21	x
59	O=C(Nc1nc2c(s1)CN(Cc1ccccc1)CC2)c1c(F)cccc1F	x	-5	u	0.4	2.2%	6	-6%
60	OC[C@@H]1CN(CCN2CCOCC2)C[C@H](n2cnc3c(NC4CCC4)ncnc32)O1	0.5%	x	x	-0.1	0.8%	x	x

Going on with the list.
#	compound	ClpP mod	TRPV1 PAM	Menin MLL FP FL	TRPML1 ag	PINK1 modulator	TRPML1 blocker	Sfp inh
61	COc1ccccc1NC(=O)COC(=O)C1=NN(c2ccccc2)C(=O)CC1	-2.5%	x	x	0.4	-1.0%	1	x
62	CC(C)[C@H](NC(=O)OC(C)(C)C)C(=O)N/N=C/c1ccc2nccnc2c1	-5.3%	-1	-0.3	0.6	1.2%	-25	20%
63	CCN(CC)c1ccc(/C=N/NC(=O)c2cccc(N3CCCC3=O)c2)cc1	x	1	-2.0	0.0	3.2%	14	11%
64	CCOC(=O)N1CCN(Cc2nc3c(c(=O)[nH]c(=O)n3C)n2Cc2cc(C)ccc2C)CC1	-0.5%	1	4.3	-0.4	-1.9%[38.3 µM]	20	10%
65	Nc1nc(Cl)cc(Sc2ccc3ccccc3c2)n1	-2.7%	1	3.2	1.8	4.8%	24	23%
66	CC(NC(=O)c1ccccc1SCC(=O)N1CCCC1)c1ccc(F)cc1 (centres undefined)	-0.9%	10	x	0.4	-1.7%	23	16%

Compound activity: PubChem BioAssay, National Center for Advancing Translational Sciences (NCATS)
